SARS PLpro yeast: qHTS of Yeast-based Assay for SARS-CoV PLP; Potency, µM (top dose mostly 32.9 µM), for the others: at the top dose activity, positive = growth rescue; 330,000 tested, 0.19% active; AID 485353, 2010; S. cerevisiae expressing SARS-CoV PLpro, growth rescue; control for the full effect not named in the record; note: 0% is about no effect; nearly all actives have a fitted effect of over 55% in size; growth read by luminescence after 48 h
Lassa entry inh: qHTS for Inhibitors of binding or entry into cells for Lassa Virus. Lassa virus pseudotype entry inhibition, cell reporter; control for the full effect not named in the record. Potency, µM (series often up to 37.9 µM), for the others: top-dose activity change, negative = inhibition, actives largely listed as inhibitors. 300,000 tested, 1.2% active; active means well fitted inhibition curve with a large enough effect; inconclusive means small, poorly fitted or top-dose-only effect, or effect the other way; inactive means flat fitted curve, though single readings scatter; tested in HEK293 cells; note: % is set by controls: 0 for no effect and ±100 for the full control effect; nearly all actives have a fitted effect of over 50% in size; luciferase read-out
StopGo reporter: High Throughput Screening for Foot and Mouth Disease Virus Antivirals. human cells with a luciferase reporter of 2A StopGo recoding; control for the full effect not named in the record. Potency, µM (series often up to 57.9 µM), for the others: at the highest dose signal change, negative = less light. AID 1159524, 2015. 410,000 tested, 1.2% active; active = well fitted falling curve with a large enough effect; inconclusive = small, poorly fitted or top-dose-only effect; inactive = no such curve, though single readings can be large or run the other way; tested in HEK293T cells; note: % is set by controls: 0 for no effect and ±100 for the full control effect; nearly all actives have a fitted effect of over 45% in size; luciferase light after 4 h
Marburg entry inh: qHTS for inhibitors of binding or entry into cells for Marburg Virus | 300,000 tested, 1.8% active | Potency, µM (series often up to 37.8 µM), for the others: at the highest dose activity change, negative = inhibition, usual class: inhibitors | Marburg virus pseudotyped entry inhibition, cell reporter; control for the full effect not named in the record; about a third of the inactives were read at about 46 µM | AID 540276, 2011; active = well fitted inhibition curve with a large enough effect; inconclusive = small, poorly fitted or top-dose-only effect, or effect the other way; inactive = flat fitted curve, though single readings scatter; tested in HEK293 cells; about a fifth of its hits are not listed in these tables; note: % is set by controls: 0 for no effect and ±100 for the full control effect; luciferase read-out
Cruzain noTriton: qHTS Assay for Promiscuous and Specific Inhibitors of Cruzain (without detergent). Cruzipain (Trypanosoma cruzi), P25779. purified cruzain, Z-FR-AMC fluorescence, no detergent. Potency, µM, for the others: max response, negative = inhibition, actives largely listed as inhibitors. 200,000 tested, 2.3% active. AID 1476, 2009; active = well fitted curve in the direction sought with a large enough effect; inconclusive = small, poorly fitted or top-dose-only effect, or another doubt; inactive = no such curve, though single readings can be large; an effect the other way counts as inactive or inconclusive;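 note: plate controls were enzyme without inhibitor for no effect and buffer without enzyme for full effect; nearly all actives have a fitted effect of over 40% in size; top concentration of the series not given in the record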
Target sequence (P25779 123-467 limits assumed): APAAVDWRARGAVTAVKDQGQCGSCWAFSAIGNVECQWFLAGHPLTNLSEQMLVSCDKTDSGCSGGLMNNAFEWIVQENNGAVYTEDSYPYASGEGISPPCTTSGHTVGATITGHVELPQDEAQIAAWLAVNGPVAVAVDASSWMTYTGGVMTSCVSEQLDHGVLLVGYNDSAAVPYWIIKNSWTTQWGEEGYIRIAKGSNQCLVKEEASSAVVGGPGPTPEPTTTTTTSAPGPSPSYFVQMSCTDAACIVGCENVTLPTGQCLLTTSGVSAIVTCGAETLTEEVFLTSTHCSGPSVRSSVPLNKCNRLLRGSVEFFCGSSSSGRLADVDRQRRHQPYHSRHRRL
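Purified cruzain at 1.5 nM, pre-incubated 15 min with compound at room temperature in 100 mM sodium acetate pH 5.5, 5 mM DTT, 0.00005% Triton X-100. Reaction started with 2 uM Z-FR-AMC; AMC fluorescence increase over 60 s gives rate.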
RE007 growth inh: qHTS Assay for Inhibitors of the HIV-1 protein Vpr; S. pombe RE007 Vpr strain, BacTiter-Glo ATP luminescence, 24 h; control for the full effect not named in the record; Potency, µM (doses to about 92.2 µM), without a hit: at the highest dose activity change, negative = less growth; 360,000 tested, 0.21% active; AID 651644, 2012; active = well fitted falling curve with a large enough effect; inconclusive = small, poorly fitted or top-dose-only effect; inactive = no such curve, though single readings can be large or run the other way;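 note: % is set by controls: 0 for no effect and ±100 for the full control effect; nearly all actives have a fitted effect of over 50% in size; the assay follows cell death caused by Vpr and the record does not say whether a fall means rescue or toxicity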
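Fission yeast RE007 carrying one integrated HIV-1 vpr copy, seeded at OD 0.01 in PMG+AL medium with 23 nL pinned compound. Grown 24 h at 30 degrees; viability read by BacTiter-Glo luminescence after 5 min.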
Cruzain Triton: qHTS Assay for Promiscuous and Specific Inhibitors of Cruzain (with detergent). Cruzipain (Trypanosoma cruzi), P25779. purified cruzain, Z-FR-AMC fluorescence, 0.01% Triton. Potency, µM, for the others: max response, negative = inhibition, hits mostly inhibitors. 200,000 tested, 0.43% active. AID 1478, 2009; active = well fitted curve in the direction sought with a large enough effect; inconclusive = small, poorly fitted or top-dose-only effect, or another doubt; inactive = no such curve, though single readings can be large; an effect the other way counts as inactive or inconclusive;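 note: plate controls were neutral wells for no effect and buffer without enzyme for full effect; nearly all actives have a fitted effect of over 40% in size; top concentration of the series not given in the record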
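Z-FR-AMC hydrolysis (2 uM substrate) by cruzain (1.5 nM) monitored kinetically at ex 360/em 450 nm after 15 min room-temperature compound exposure; 0.01% Triton X-100, pH 5.5, 5 mM DTT.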
NS1 inh: qHTS Assay for Inhibitors of Influenza NS1 Protein Function; 270,000 tested, 0.4% active; Potency, µM (top dose mostly 46.1 µM), without a hit: at the highest dose activity, positive = more growth; S. cerevisiae slowed by influenza A NS1, growth recovery by OD600; AID 2326, 2010; note: actives are rising curves; nearly all actives have a fitted effect of over 50% in size
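Read-out: OD600 growth recovery of NS1-expressing budding yeast. Cells grown overnight at 30C in -URA glucose medium, washed, resuspended and diluted 1:100 in 2% galactose assay medium, pH 6.0. Same strain lacking NS1 served as positive control.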
Active calls of the source: *; ? = inconclusive; nt = no result given; & = joins results of further samples; [ ] = remark or other dose. Unless noted, calls come from the whole dose curve; as a rule, active means well fitted rising curve with a large enough effect; inconclusive means small, poorly fitted or top-dose-only effect; inactive means no such curve, though single readings can be large or run the other way. Potency is the fitted concentration of half-maximal effect.

Each structure is followed by: SARS PLpro yeast | Lassa entry inh | StopGo reporter | Marburg entry inh | Cruzain noTriton | RE007 growth inh | Cruzain Triton | NS1 inh
COc1ccc(-n2cc(C(=O)c3cc(Cl)ccc3O)cc(C#N)c2=O)cc1
 : -4% | -24% | -29% | -12%[46.1 µM] | nt | -24% | nt | nt
CCCn1nnnc1NC(=O)COc1ccc(CC)cc1
 : -3% | 0% | -11% | 0% | -2% | 16% | -0.5% | -20%
COc1ccc(C)cc1Nc1n[n+](-c2ccccc2)c(-c2cccc(Cl)c2Cl)s1
 : -11% | nt | -8% | nt | nt | 5% | nt | 3%
O=C(NCCc1ccc(Cl)cc1)C12CC3CC(CC(O)(C3)C1)C2
 : 0% | nt | 29% | nt | nt | 6% | nt | 13%
COc1ccc(S(=O)(=O)N2CCCN(CC(=O)Nc3cc(NC(C)=O)ccc3OC)CC2)cc1
 : -2% | 0% | 4% | 0%&-11% | ? | 16% | 0.9% | -15%
O=C(Nc1cccc(Cl)c1)C1CCCN(C2=NS(=O)(=O)c3ccccc32)C1 (configuration not stated)
 : -1% | -18%[46.1 µM] | -13% | -19% | nt | 8% | nt | nt
O=C(Cn1cc(SCc2ccc(C(F)(F)F)cc2)c2ccccc21)N1CCCCCC1
 : nt | ? | -6% | nt | -8% | nt | -9.0% | nt
O=c1[nH]cnc(O)c1C1C=CC=CC=C1
 : nt | -13% | ? | ? | nt | -14% | nt | nt
O=C(CN1C(=O)COc2ccccc21)NC1CCCC1
 : 1% | 18%[46.1 µM] | 7% | -11%[46.1 µM] | nt | -4% | nt | -3%
CCCCCCc1cc2cc(C(N)=O)c(=N)oc2cc1O
 : -1% | nt | nt | 0% | ? | nt | 2.7% | -89%
Cc1nc2nc[nH]n2c(=O)c1NC(=O)c1c(-c2ccccc2Cl)noc1C
 : 1% | 13% | -14% | 29% | -1% | 23% | -0.9% | 12%
COc1cccc(CN(Cc2ccco2)c2cnc(S(C)(=O)=O)nc2C(=O)Nc2cccc(Cl)c2C)c1
 : nt | -7%[46.1 µM] | -19% | ? | ? | nt | -3.4% | nt
Cc1sc2ncn(CC(=O)N3CCN(c4ccc(F)cc4)CC3)c(=O)c2c1S(=O)(=O)N1CCC(C)CC1
 : nt | -1%[46.1 µM] | ? | -37%[46.1 µM] | 5% | nt | -0.5% | nt
COc1cc(NC(=O)CN2CCN(CC(=O)Nc3ccccc3OC)CC2)cc(OC)c1
 : -4% | nt | ? | nt | nt | 8% | nt | 4%
Cc1ccc(C(=O)OCC(=O)Nc2ccccc2C(F)(F)F)cc1S(=O)(=O)N1CCCCC1
 : -2% | -25% | -2% | ? | nt | -18% | nt | nt
O=C(Cn1cc(-c2nnnn2-c2ccc(Cl)cc2)c(=O)c2ccccc21)c1ccccc1
 : 3% | -15% | -8% | -23% | 1% | 26% | -6.0% | -5%
CCCOc1ccc(N2CC(C(=O)NC3=NCCS3)CC2=O)cc1 (configuration not stated)
 : 2% | -7%[46.1 µM] | 10% | -6%[46.1 µM] | nt | -4% | nt | nt
O=c1c2cnn(-c3ccccc3)c2ncn1Cc1ccco1
 : -6% | -17% | -28% | 3% | -2% | -1% | 0.6% | -2%
CCC(=O)Nc1ccc(S(=O)(=O)Nc2ncccn2)cc1
 : 4% | 11% | -15% | -11% | -5% | 1% | -2.8% | -3%
CCn1nc(C)cc1C(=O)Sc1ccc(Cl)cc1Cl
 : -2% | 15% | ? | 2%[46.1 µM] | nt | ? | nt | 1%
COc1ccc(C(=O)Nc2ccccc2)cc1NC(=O)c1ccc([N+](=O)[O-])cc1
 : -3% | ? | -10% | ? | nt | -21% | nt | 3%
CCCCCCCn1c2c(c(=N)c3ccccc31)CCC2
 : -6% | nt | 5µM* | nt | nt | ? | nt | -34%
C/C(CC(=O)NC1CCCC1)=N\NC(=O)C1CCCCC1
 : -1% | 4% | -3% | 17%[14.2 µM] | nt | 13% | nt | 1%
COc1cccc(CNCCSc2nnnn2-c2ccccc2)c1OC
 : nt | -7%[46.1 µM] | -12% | -31%[46.1 µM] | -3% | nt | 0.0% | nt
CC(=O)n1nc(-c2cccnc2)nc1N
 : 1% | 2% | 0% | 14% | 2% | 8% | 3.0% | 2%
CCN(CC)S(=O)(=O)N1CCC(C(=O)NC2CCCc3ccccc32)CC1 (configuration not stated)
 : 22% | 1% | 0% | 10% | 25% | 1% | -1.9% | -10%
COc1ccccc1N1CCN(C(=O)Cn2cnc3sc(C)c(S(=O)(=O)N4CCC(C)CC4)c3c2=O)CC1
 : nt | 1%[46.1 µM] | -25% | 13%[46.1 µM] | 7% | nt | -0.8% | nt
CCn1c(=O)c([N+](=O)[O-])c(NCc2ccc3c(c2)OCO3)c2ccccc21
 : 0% | nt | -18% | nt | nt | -5% | nt | 5%
Cc1cc(=O)n2[nH]c(C(F)(F)F)c(-c3ccccc3)c2n1
 : 1% | nt | -6% | nt | nt | 9% | nt | 5%
CCCCc1ccc(NC(=O)CSc2nc3ccccc3nc2N2CCOCC2)cc1
 : nt | -6%[46.1 µM] | -8% | ? | 5% | nt | -5.2% | nt
COc1ccc(-n2c(=O)cc(N3CCN(c4ccccc4F)CC3)[nH]c2=O)cc1
 : 0% | -4% | -4% | ? | 2% | -15% | 1.5% | 6%
CCn1c(SCC(=O)N2CCCCC2C)nc2ccsc2c1=O (configuration not stated)
 : -4% | -24% | -20% | ? | -7% | 11% | 5.7% | -19%
CCC(CC)C(=O)Nc1cccc(/C(C)=N/NC(=O)c2ccccc2Cl)c1
 : 4% | 11% | 13% | 2% | 1% | -5% | -8.0% | 4%
Cc1cc(C)c2cc(C(=O)N(C)C3CCN(C)CC3)[nH]c2c1
 : 1% | 13%[46.1 µM] | -16% | ? | nt | 7% | nt | 3%
COc1cc2c(cc1OC)C(COc1ccc(F)cc1)N(C(=O)c1cccc(F)c1)CC2 (configuration not stated)
 : nt | -19%[46.1 µM] | -19% | nt | 20% | nt | -0.8% | nt
O=C(Nc1ccc(NC(=O)c2ccco2)nc1)c1ccccn1
 : -30% | ? | -40% | ? | -4% | -27% | -5.5% | -108%
COc1ccc(Nc2nc(N)nc(CSc3n[nH]c(-c4ccccc4)n3)n2)cc1
 : -3% | 4% | ? | ? | -12% | 7% | -5.4% | -26%
CNC(=O)C(=O)NCCN1CCN(C(=O)c2ccc([N+](=O)[O-])cc2)CC1
 : 1% | -17% | -9% | -6%[46.1 µM] | nt | -1% | nt | 2%
CCOc1ccc(CNc2nc3ccccc3n2CCN2CCOCC2)cc1
 : -1% | 0% | 0% | -14% | 2% | -7% | -1.6% | 5%
COc1ccc(CC(NC(C)=O)C(=O)NC2CCN(C(=O)c3cccc(Cl)c3)CC2)cc1OC (configuration not stated)
 : 5% | 1%[46.1 µM] | 5% | 18%[46.1 µM] | nt | -22% | nt | 12%
CCN(C(=O)CSc1nnc(-c2cccs2)n1CC)C1CCS(=O)(=O)C1 (configuration not stated)
 : 0% | -8% | 0% | 22% | nt | -9% | nt | 2%
FC(F)(F)c1cc(-c2cccs2)nc2nc(N3CCOCC3)sc12
 : -1% | 0% | ? | -4%[46.1 µM] | nt | -7% | nt | nt
Cc1ccc(-n2c(Cc3cccc4ccccc34)n[nH]c2=S)c(C)c1
 : 0% | nt | -29% | nt | nt | 1% | nt | 6%
CCOc1ccc(NC(=O)C2CCCN(S(C)(=O)=O)C2)cc1 (configuration not stated)
 : 0% | 3%[46.1 µM] | -7% | 16%[46.1 µM] | nt | 4% | nt | 0%
O=C(COc1ccccc1)NCc1ccc2c(c1)CCN2C(=O)c1ccccc1
 : nt | -22%[46.1 µM] | -1% | nt | 5% | nt | -0.1% | nt
COc1ccc(CCNC(=O)[C@H](C)N2C(=O)N3CCc4c([nH]c5ccccc45)[C@@]3(C)C2=O)cc1OC
 : ? | nt | ? | nt | nt | 7% | nt | -12%
COC(=O)c1ccc(N2C(=O)CC(SCC(=O)Nc3ccc(OC)cc3)C2=O)cc1 (configuration not stated)
 : -12% | nt | -23% | nt | nt | ? | nt | -86%
CCCCOC(=O)C1=C(C)Nc2ncnn2C1c1cccc(OC)c1OC (configuration not stated)
 : 2% | -10% | -9% | -19% | 5% | -2% | -2.9% | -3%
COC(=O)C1CCN(C(=O)NC2CCCCC2)CC1
 : 1% | 5% | nt | 25% | 0% | 0% | 2.8% | 6%
O=C(CN1C(=O)c2ccccc2S1(=O)=O)N1CCN(c2ccccc2F)CC1
 : 5% | -14% | 45%[activator] | -1% | -13% | 16% | -0.6% | 4%

The list goes on:
Each structure is followed by: SARS PLpro yeast | Lassa entry inh | StopGo reporter | Marburg entry inh | Cruzain noTriton | RE007 growth inh | Cruzain Triton | NS1 inh
CCCSc1nnc(N2C(=O)C(O)=C(C(=O)c3ccco3)C2c2ccccc2F)s1 (configuration not stated)
 : 0% | nt | 0% | nt | nt | -6% | nt | -3%
Cc1ccc(NC(=O)[C@H](NC(=O)[C@@H]2Cc3ccccc3CN2)c2ccccc2)c(C)c1
 : ? | nt | 0% | nt | nt | -3% | nt | 13%
O=C(Nc1ccc2c(c1)OCCO2)c1c(F)cccc1F
 : -12% | 62%[14.3 µM] | 67%[activator] | -17% | -13% | 14% | -1.3% | 0%
COc1ccc(S(=O)(=O)Nc2cc(OC)c(NC(=O)c3ccco3)cc2OC)cc1
 : -5% | 18% | nt | -28% | 19% | -9% | -5.9% | -7%
COc1ccc(OC)c(S(=O)(=O)n2ccnc2C)c1
 : -3% | ? | 29% | 3% | 3% | -5% | -3.9% | 5%
COc1ccc(-c2nnc(SCc3cccc(Cl)c3)o2)cc1
 : nt | 22%[46.1 µM] | 18% | -6%[46.1 µM] | 0% | nt | -2.0% | nt
CCCn1c(C)c(C(=O)c2cccc3ccccc23)c2ccccc21
 : nt | nt | 24%&16% | nt | -10% | 6%[18.4 µM] | 4.5% | nt
